From PubChem
VDR inhibitor: blocks the human vitamin D receptor; P11473; VDR-SRC2-3 peptide fluorescence polarization, 2 h; Potency, µM, inactives show max response, negative = inhibition, usual class: inhibitors; actives 0.93% (n = 400,000); AID 504847; active = well fitted inhibition curve with a large enough effect; inconclusive = small, poorly fitted or top-dose-only effect, or another doubt; inactive = no such curve, though single readings can be large or run the other way; also: series mostly up to about 120 µM
Target sequence (P11473 whole entry, looked up): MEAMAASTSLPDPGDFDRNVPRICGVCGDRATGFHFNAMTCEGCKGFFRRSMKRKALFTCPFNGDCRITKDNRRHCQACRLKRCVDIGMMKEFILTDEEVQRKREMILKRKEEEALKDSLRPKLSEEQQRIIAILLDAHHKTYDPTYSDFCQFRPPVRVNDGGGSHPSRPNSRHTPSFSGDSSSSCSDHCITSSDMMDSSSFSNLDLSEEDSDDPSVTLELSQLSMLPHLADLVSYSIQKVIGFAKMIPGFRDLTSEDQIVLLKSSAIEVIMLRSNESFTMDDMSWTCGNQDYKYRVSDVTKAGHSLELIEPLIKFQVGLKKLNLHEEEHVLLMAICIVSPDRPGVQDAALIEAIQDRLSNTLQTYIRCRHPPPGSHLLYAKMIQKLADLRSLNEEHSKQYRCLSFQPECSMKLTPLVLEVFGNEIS
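Inhibition of the VDR/SRC2-3 peptide interaction is quantified by fluorescence polarization. Compounds (23 nl, pintool) incubate with the reagents for 2 hours at ambient room temperature.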
* marks the source's active call; other numbers are inactive results; ? = inconclusive; & = joins results of further samples; [ ] = dose if it differs, or a comment. % is scaled to controls: 0 for no effect and ±100 for the full control effect; potency is read from the fitted curve at half-maximal effect. Only part of the results is shown; rates above refer to the full screens.

SMILES	VDR inhibitor
CC(=O)c1ccc(OCC(O)CN2CCN(CCN3C(=O)c4cccc5cccc(c45)C3=O)CC2)cc1 (stereo not given)	6%
O=C(NCCNS(=O)(=O)c1ccccc1Cl)c1cc(OCC(F)(F)F)ccc1OCC(F)(F)F	35%[activator]
CC1(C)NC(=O)N(CCCCOc2ccc(Cl)cc2)C1=O	-8%
O=C(c1ccc([N+](=O)[O-])cc1)N1CCN(c2ncc(Br)cn2)CC1	?
COc1cc(C2Nc3cc(Cl)c(S(N)(=O)=O)cc3S(=O)(=O)N2)cc(OC)c1OC (stereo not given)	-7%
CN1C2=C(C(=O)CC(C)(C)C2)C(c2cccs2)C2=C1CC(C)(C)CC2=O	0%
CC(=O)NCC(=O)N(C)C(C(=O)Nc1ccc2c(c1)OCCO2)c1ccccc1 (stereo not given)	14%
CN1CCCN(C(=O)/C=C/c2ccc(F)cc2)CC1	-9%
O=C(CNS(=O)(=O)c1ccc([N+](=O)[O-])cc1)N/N=C\c1ccc(O)cc1	5%
O=C(C1CCN(c2ncnc3c2nc2n3CCCCC2)CC1)N1CCCCC1	-8%
Cc1nc(C)c(C(=O)N2CCCC(C(=O)c3ccc4ccccc4c3)C2)s1 (stereo not given)	-8%
O=C(Cc1ccccc1)Nc1cccc(C(=O)O)c1O	-7%
CCc1c(C)nn(C(=O)/C(C#N)=C\N(C)C)c1C	14%
CCOCCc1nnc(NC(=O)c2cc(OC)c(OC)c(OC)c2)s1	-12%
COc1ccc(C2=C(C)C(N3CCC(C(=O)NCc4ccco4)CC3)=NS2(=O)=O)cc1	2%
CN(C)C1(CNC(=O)Nc2ccccc2)CCCCC1	-8%
CN(CC(=O)OCC(=O)NCc1ccccc1)S(=O)(=O)c1ccc(F)cc1	19%
O=C(Cn1cccc1C(=O)c1ccccc1)NCc1cccnc1	-3%
Cc1c(NC(=O)Cc2ccccc2)cccc1C(=O)NN1C(=O)c2ccccc2C1=O	-14%
Cc1cc(NS(=O)(=O)c2ccc(Cl)cc2)nn1CC(=O)NCc1ccco1	-3%
CC(C)(C)OC(=O)N1CCC(c2c(C(=O)N3CCN(C(=O)c4ccco4)CC3)cnn2-c2cccc(Cl)c2)CC1	-5%&6%
CCOc1ccccc1-n1ccn(CC(=O)Nc2ccc(Br)cc2F)c(=O)c1=O	-24%
C[C@@]12CCC(O)C[C@H]1CCc1ccccc12 (stereo not given in full)	-12%
CC(=O)c1c(C)[nH]c(C(=O)OCC(=O)c2c(N)n(CC(C)C)c(=O)n(C)c2=O)c1C	-2%
CCc1noc(C)c1C(=O)N1CCCC(N2CCN(c3ccccc3F)CC2)C1 (stereo not given)	5%

2 entries from above, as labelled records:
smiles: O=C(CNS(=O)(=O)c1ccc([N+](=O)[O-])cc1)N/N=C\c1ccc(O)cc1
  VDR inhibitor = 5%
smiles: O=C(C1CCN(c2ncnc3c2nc2n3CCCCC2)CC1)N1CCCCC1
  VDR inhibitor = -8%

Some of the entries so far, with bars between the fields:
canonical_smiles | VDR inhibitor
O=C(Cc1ccccc1)Nc1cccc(C(=O)O)c1O | -7%
CCc1c(C)nn(C(=O)/C(C#N)=C\N(C)C)c1C | 14%
CCOCCc1nnc(NC(=O)c2cc(OC)c(OC)c(OC)c2)s1 | -12%
COc1ccc(C2=C(C)C(N3CCC(C(=O)NCc4ccco4)CC3)=NS2(=O)=O)cc1 | 2%
CN(C)C1(CNC(=O)Nc2ccccc2)CCCCC1 | -8%
CN(CC(=O)OCC(=O)NCc1ccccc1)S(=O)(=O)c1ccc(F)cc1 | 19%
O=C(Cn1cccc1C(=O)c1ccccc1)NCc1cccnc1 | -3%
Cc1c(NC(=O)Cc2ccccc2)cccc1C(=O)NN1C(=O)c2ccccc2C1=O | -14%
Cc1cc(NS(=O)(=O)c2ccc(Cl)cc2)nn1CC(=O)NCc1ccco1 | -3%
CC(C)(C)OC(=O)N1CCC(c2c(C(=O)N3CCN(C(=O)c4ccco4)CC3)cnn2-c2cccc(Cl)c2)CC1 | -5%&6%
CCOc1ccccc1-n1ccn(CC(=O)Nc2ccc(Br)cc2F)c(=O)c1=O | -24%
C[C@@]12CCC(O)C[C@H]1CCc1ccccc12 (stereo not given in full) | -12%
CC(=O)c1c(C)[nH]c(C(=O)OCC(=O)c2c(N)n(CC(C)C)c(=O)n(C)c2=O)c1C | -2%
CCc1noc(C)c1C(=O)N1CCCC(N2CCN(c3ccccc3F)CC2)C1 (stereo not given) | 5%

(cont.)
SMILES	VDR inhibitor
CCn1c(SC)nnc1-c1sc2cc(Cl)ccc2c1Cl	-7%
COc1ccccc1CNC(=O)CCn1c(=O)c2ccccc2n(CC(=O)Nc2ccc(Br)cc2F)c1=O	2%
Cc1ccc(S(=O)(=O)O/N=C2\CCCc3ccccc32)cc1	4%
CC(C)CCN(C(=O)c1ccc(Br)cc1)c1c(N)n(Cc2ccccc2)c(=O)[nH]c1=O	21%
COc1cccc(OCC(O)CN2CCN(c3ncccn3)CC2)c1 (stereo not given)	-25%
COc1cc(C(=O)N(C)Cc2cccc(OC)c2OC)ccc1OCC(=O)Nc1cccc(C(F)(F)F)c1	-10%
Cc1ccc(Cn2nc(C)c(NC(=O)c3cc(C)no3)c2C)cc1	-1%
Cc1cc(C)c2sc(NNC(=O)c3ccc(S(=O)(=O)N4CCc5ccccc5C4)cc3)nc2c1	4%
C=C(C)CN1C(=O)C(O)(CC(=O)c2ccc3c(c2)OCCO3)c2ccccc21 (stereo not given)	5%
CCOc1cccc(C(=O)NNC(=O)C2C3C=CC(C3)C2C(=O)O)c1 (stereo not given)	11%
CC(=O)OC1CCC2(C)C3CC(=O)C4(C)C(CC5OC6(CCC(C)CO6)C(C)C54)C3CC[C@H]2C1 (stereo not given in full)	1%
Cc1cc(C)cc(N2C(N)=NC(N)=NC2c2cccc(Cl)c2)c1 (stereo not given)	-6%
CCCc1nn2c(=O)cc(COC(=O)c3cccc(NC(=O)CCc4ccccc4)c3)nc2s1	15%
CC(=O)Nc1ccc(S(=O)(=O)N(C)CC(=O)OCC(=O)N2CCCCC2)cc1	2%
O=C(CSc1nnc(-c2cccnc2)n1Cc1ccccc1)NCc1ccco1	-20%
O=C(N/N=C/c1ccoc1)c1ccccc1	24%
CCN(CC)c1nc2c(S(=O)(=O)c3ccc(C)cc3)nnn2c2ccsc12	5%
Cc1cc(C)c(Cn2c(C(O)c3ccccc3)nc3ccccc32)c(C)c1 (stereo not given)	16%
C[N+]12CCC(CC1)C(OC(=O)C(O)(c1ccccc1)c1ccccc1)C2 (stereo not given)	-9%&12%
NS(=O)(=O)c1ccc(CCNC(=O)CCNS(=O)(=O)c2ccccc2C(F)(F)F)cc1	-25%
CC(C)(C)NC(=O)C(c1ccc(-c2ccccc2)cc1)N(C[C@H]1CC[C@@H]([C@@H]2CC[C@H](CO)O2)O1)C(=O)c1ccc2ccccc2c1 (stereo not given in full)	-5%
O=C(CSc1nc2ccc([N+](=O)[O-])cc2s1)c1ccc2ccccc2c1	-14%
O=C(c1ccccc1)c1cc2ccc(O)cc2oc1=O	-9%
COC(=O)c1cccc(S(=O)(=O)N(Cc2ccco2)Cc2cc3cc(OC)c(OC)cc3[nH]c2=O)c1	17%
CCCCC1(C)OC(=O)C(=Cc2c[nH]c3ccccc23)C(=O)O1 (stereo not given)	2%

Continued.
SMILES	VDR inhibitor
COc1ccc(OC)c(NC(=O)c2ccc3c(SCC(=O)O)c4c(nc3c2)CCCC4)c1	-11%
O=C(Oc1ccnc2cc(Cl)ccc12)N1CCOCC1	-6%
C=C1C[C@@]23C[C@]1(O)CC[C@@H]2[C@]12C=C[C@@H](O)[C@](C)(C(=O)O1)[C@H]2[C@H]3C(=O)O	5%
Cc1nnc(SCC(=O)N2CCc3ccccc3C2)s1	-5%
CSc1ccc(Cl)c(C(=O)NC2CCCC2)c1	15%
O=C(COC(=O)CCc1ccc(S(=O)(=O)N2CCOCC2)cc1)Nc1ccccc1OC(F)F	3%
Cc1ccnc(NS(=O)(=O)c2ccc(NC(=O)C3COc4ccccc4O3)cc2)n1 (stereo not given)	?
CO[C@@H]1C=CO[C@]2(C)Oc3c(C)c(O)c4c(O)c(c(C=NN5CCN(C)CC5)c(O)c4c3C2=O)NC(=O)C(C)=CC=C[C@H](C)[C@H](O)[C@H](C)[C@H](O)[C@H](C)[C@H](OC(C)=O)[C@H]1C	3%
Oc1ccccc1C=NNC(=S)NN=Cc1ccccc1O	-6%
COc1ccc(/C=N/N2CCOCC2)cc1Cn1cc([N+](=O)[O-])cn1	4%
CCOc1ccc(CCNC(=O)CCCn2c(=O)c3cccn3c3ccccc32)cc1	-3%
COc1cccc(C(=O)Nc2nnc(S(=O)(=O)N(C)Cc3ccc(F)cc3)s2)c1	17%
C/C(=N\Nc1ccc(S(N)(=O)=O)cc1[N+](=O)[O-])c1cccs1	-2%
CCCNC(=O)C12CCC(C)(C(=O)C1Br)C2(C)C (stereo not given)	3%
Cc1c(C)c2ccc(O[C@@H]3O[C@H](CO)[C@@H](O)[C@H](O)[C@H]3O)c(C)c2oc1=O	-4%
O=C1c2ccccc2/C(=C\c2ccc3[nH]ccc3c2)N1c1ccccc1	10%
CCC(=O)N(Cc1cc(=O)[nH]c2ccccc12)c1ccccc1	0%
Nc1nc(SCc2ccccc2Cl)c2ncn(C3OC(CO)C(O)C3O)c2n1 (stereo not given)	-1%
Cc1ccc(CNC(=O)COC(=O)c2cccc(S(=O)(=O)N3CCCCC3)c2)cc1	17%
COc1ccccc1CCc1nnc(CCC(=O)NCC(C)Oc2cccnc2)o1 (stereo not given)	7%
CCOc1ccc(-c2nc(C#N)c(NCCCOC)o2)cc1	4%
C/C(=N\NC(=O)c1cc(-c2ccc(C)s2)[nH]n1)c1ccco1	-6%
N#C[C@H]1C(O)C(O)c2ccccc2N1C(=O)c1ccccc1 (stereo not given in full)	-12%
Cc1cc(=O)oc2c(C)c(OC(C)C(=O)NC3CCN(Cc4ccccc4)CC3)ccc12 (stereo not given)	-1%
C/C(=N/N=C/c1ccc(N(C)C)cc1)c1ccccc1	-9%

Other records
SMILES	VDR inhibitor
N#CC1=C(N)N(c2ccc(F)cc2)C(=O)C1	-7%
CCN=C(NS(=O)(=O)c1ccc(Br)cc1)c1ccc(Cl)cc1	-4%
CCOc1ccccc1C(=O)Nc1cccc(-c2ccc3nncn3n2)c1	9%
O=C(Nc1ccc(C(=O)N2CCOCC2)cc1)c1cnn2c(C(F)F)cc(-c3ccccc3)nc12	-2%
CCN(CC(=O)NC(=O)NC1CCCC1)Cc1ccccc1	-3%
COc1ccc2c(C)cc(=O)oc2c1C	-1%
O=C(CCCSc1nc2ccccc2[nH]1)NCc1ccccc1F	14%
CCOC(=O)C1=C(C)N(c2ccc(C)cc2)C(=O)/C1=C\c1cccs1	-15%
CCOc1c(Cl)cc(C(=O)NCCN2CCCCC2)cc1Cl	14%
Cc1ccccc1/C(N)=N/OC(=O)N1c2ccccc2Sc2ccccc21	-18%
CCN(CC)CCC(c1ccc(OC)cc1)c1c(OC)cc(OC)c2c(C)cc(=O)oc12 (stereo not given)	-14%
N#Cc1ccc(CC(C(=O)O)N2Cc3ccccc3C2=O)cc1 (stereo not given)	-10%
CCCCNC(=O)CC(NS(=O)(=O)c1ccc(C)cc1)c1ccco1 (stereo not given)	-12%
Cc1cccc(NC(=O)CSc2nnc(NC(=O)C3CC3)s2)c1C	20%
N#Cc1cc(S(=O)(=O)c2ccccc2)c(N)[nH]c1=O	9%
CCOC(=O)C1=C(COC(=O)/C=C/c2cccc(OC)c2OC)NC(=O)NC1C (stereo not given)	4%
CSCC[C@H](NC(=O)[C@H](Cc1c[nH]c2ccccc12)NC(=O)CNC(=O)[C@H](Cc1ccc(O)cc1)NC(=O)[C@H](C)NC(=O)[C@H](CCC(=O)O)NC(=O)[C@H](CCC(=O)O)NC(=O)[C@H](CCC(=O)O)NC(=O)[C@H](CCC(=O)O)NC(=O)[C@H](CCC(=O)O)NC(=O)[C@H](CC(C)C)NC(=O)[C@H](Cc1c[nH]c2ccccc12)NC(=O)[C@@H]1CCCN1C(=O)CNC(=O)[C@@H]1CCC(=O)N1)C(=O)N[C@@H](CC(=O)O)C(=O)N[C@@H](Cc1ccccc1)C(=O)NCC(=O)O	7%
Cn1cc(CCC(=O)NC2CC(C)(C)Cc3c2cnn3-c2ccc(F)cc2)cn1 (stereo not given)	-2%
Cc1c(C(=O)Nc2ccc(F)cc2)sc2nc[nH]c(=O)c12	20%
Cc1cc(-n2c(SCc3ccccc3F)nc3[nH]ncc3c2=O)ccc1Cl	16%
CCOC(=O)Cc1ccc(NC(=O)NCc2cccn2Cc2ccccc2)cc1	5%
CCOC(=O)N1CCN(C(=O)CN2C(=O)/C(=C\c3cccc(OC)c3)SC2=S)CC1	-1%
Cc1ccc(Nc2cc(C)c(O)c(C)c2)cc1	25µM*
Cc1ccc(-c2cc(C(=O)N3CCN(C4CCS(=O)(=O)C4)CC3)c3ccccc3n2)cc1 (stereo not given)	6%
COC(=O)c1nn(-c2ccccc2)c(=O)cc1Oc1ccc(Cl)cc1	9%

More compounds.
SMILES	VDR inhibitor
CCCCCC1CC(CC#CCN2CCOCC2)C(=O)O1 (stereo not given)	-14%
O=C(NNC(=O)c1ccccc1O)c1cccc(Br)c1	-6%
CC(=O)c1c(N2CCN(C)CC2)nc(=S)n(Cc2ccccc2)c1C	-14%
COc1cccc(CSc2nc3ccccc3c3nc(CCn4c(C)nc5ccccc54)nn23)c1	2%
CCc1cc(=O)oc2c(C)c(OCC(=O)NCCN3CCOCC3)ccc12	?
CCn1c2c(c(=O)n3ncc(C(=O)N4CCN(c5ccccc5)CC4)c13)CN(Cc1ccc(OC)cc1)CC2	13%
COc1cccc(NC(=O)CN(C)C(=O)c2ccc(COc3ccccc3)cc2)c1	8%
C=C(C1=CCN(S(=O)C(C)(C)C)[C@H]1CCO)c1ccccc1 (stereo not given in full)	4%
CC(=O)CSc1cc(C)nc2c(-c3ccccc3)c(C)nn12	7%
CC(=NCc1cccnc1)C1=C(O)c2ccccc2C1=O	10%
Cn1c(=O)oc2cc(S(=O)(=O)NCCC(=O)Nc3ccc(F)c(Cl)c3)ccc21	6%
O=C(CSc1ncn[nH]1)Nc1nnc(-c2ccccc2)s1	-12%
CC(C)CN1C(=O)/C(=C/c2ccco2)NC1=S	-25%
c1ccc(COc2ccccc2CNC2CCCC2)cc1	8%
